Source: PubChem
TRPML1 agonist – activates the human TRPML1 channel | actives 0.12% (n = 410,000) | TRPML1-expressing cells, Ca2+ dye fluorescence, FDSS; host cell line not named in the record; reference of the full effect not given here | Q9GZU1 | activation, % (test concentration not listed); in the data active = activation above about 50%; inconclusive = about 30% to 50%; inactive = below about 30%; also: 0% is about no effect; the text of the record puts the active cut at 80%
Target sequence (Q9GZU1 whole entry, looked up): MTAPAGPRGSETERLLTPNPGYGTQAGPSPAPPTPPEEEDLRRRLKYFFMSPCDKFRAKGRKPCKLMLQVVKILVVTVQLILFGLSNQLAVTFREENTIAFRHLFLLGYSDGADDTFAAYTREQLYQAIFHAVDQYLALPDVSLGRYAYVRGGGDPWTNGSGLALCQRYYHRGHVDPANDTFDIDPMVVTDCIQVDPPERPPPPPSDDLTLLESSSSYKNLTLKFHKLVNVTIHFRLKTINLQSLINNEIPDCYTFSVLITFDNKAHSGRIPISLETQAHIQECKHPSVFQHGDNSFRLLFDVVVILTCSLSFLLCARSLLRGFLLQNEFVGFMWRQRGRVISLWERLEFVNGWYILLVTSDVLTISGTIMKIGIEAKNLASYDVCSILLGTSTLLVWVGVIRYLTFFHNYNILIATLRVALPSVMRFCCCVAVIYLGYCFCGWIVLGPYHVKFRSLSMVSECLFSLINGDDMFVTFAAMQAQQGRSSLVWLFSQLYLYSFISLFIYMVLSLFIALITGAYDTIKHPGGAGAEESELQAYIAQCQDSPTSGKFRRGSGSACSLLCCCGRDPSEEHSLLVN
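TRPML1-DL cells, Tet-induced overnight (~16 h, 37 degrees C), loaded 45-90 min at room temperature with Ca8 no-wash calcium dye plus quencher. FDSS fluorescence: 10 s baseline, compound pin-transfer, 110 s agonist read, then EC80 54-4 (4uM final) and 110 s antagonist read.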
CtBP-E1A inh – inhibitors of CtBP/E1A interaction. AlphaScreen GST-E1A/His-CtBP binding, 1536-well; stronger effect = lower value; control for the full effect not named in the record. activity change, % (no concentration beside the values). actives 0.49% (n = 340,000). AID 651724; in the data active means activity change below about -65%; inconclusive means about -30% to -65%; inactive means above about -30%; also: % is scaled to controls: 0 for no effect and ±100 for the full control effect; compound concentration not given in the record
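Protein mix (5X: 125 nM each GST-E1A, His-CtBP) was incubated with pinned compound 2 h at 37 deg C in dark, in 50 mM Tris pH 8.0 buffer with 300 mM NaCl. Glutathione donor and nickel acceptor beads followed; AlphaScreen signal read after 1 h.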
TRPML1 inh – blocks the human TRPML1 channel | actives 0.02% (n = 390,000) | activity change, negative = inhibition, % (concentration not given with the values) | TRPML1-inducible cells, Ca2+ dye fluorescence, FDSS; stronger effect = lower value; inhibition of EC80 agonist-evoked calcium signal; in the data active means activity change below about -50%; inconclusive means about -30% to -50%; inactive means above about -30%;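 also: stimulus is agonist 54-4 at its EC80 concentration; % is scaled to controls: 0 for no effect and ±100 for the full control effect; compound concentration not given in the record; the text of the record puts the active cut at -80%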
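Calcium fluorescence in TRPML1-DL cells induced overnight with Tet: a 110 s read after compound pin addition, then a 110 s antagonist read after challenge with 54-4 at 4 uM final (EC80).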
Six1-Eya2 inh – Six1/Eya2 interaction inhibition; activity change, % (test concentration not listed); actives 0.56% (n = 360,000); Q15475+O00167; AlphaScreen GST-Six1/His-Eya2 binding, biochemical; stronger effect = lower value; control for the full effect not named in the record; in the data active = activity change below about -65%; inconclusive = about -30% to -65%; inactive = above about -30%; also: % is scaled to controls: 0 for no effect and ±100 for the full control effect; compound concentration not given in the record
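GST-Six1 + His-Eya2 (5X stock: 250/500 nM); Tris pH 8.0, 300 mM NaCl, 0.05% BSA, 0.02% Tween 20; GSH donor/Ni acceptor beads; 1 h 37 °C dark; AlphaScreen readout.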
D2 PAM – human D2 receptor positive allosteric modulation; DiscoveRx D2 beta-arrestin cells, luminescence, 90 min; 100% = 57 uM dopamine signal; potentiation, % (concentration not given with the values); actives 0.23% (n = 360,000); AID 624464; active = potentiation of 50% or more; inconclusive = 30% to 50%; inactive = 30% or less;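 also: compound concentration not given in the record; tested on top of an EC20 dose of dopamine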
Target sequence (P14416 whole entry, looked up): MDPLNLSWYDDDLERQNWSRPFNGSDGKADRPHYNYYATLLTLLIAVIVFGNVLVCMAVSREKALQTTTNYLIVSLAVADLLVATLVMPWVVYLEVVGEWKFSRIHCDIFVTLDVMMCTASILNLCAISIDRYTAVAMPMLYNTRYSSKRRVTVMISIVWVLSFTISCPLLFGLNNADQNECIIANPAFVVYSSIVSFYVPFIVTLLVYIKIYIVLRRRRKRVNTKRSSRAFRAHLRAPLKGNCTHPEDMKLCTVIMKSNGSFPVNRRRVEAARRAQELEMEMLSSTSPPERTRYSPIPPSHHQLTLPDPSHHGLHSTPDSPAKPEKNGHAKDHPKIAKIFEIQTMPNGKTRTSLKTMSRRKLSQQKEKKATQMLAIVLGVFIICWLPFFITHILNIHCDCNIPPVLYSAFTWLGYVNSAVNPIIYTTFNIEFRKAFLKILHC
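PathHunter beta-arrestin assay in DiscoveRx D2 cells. Compounds were added with an EC20 of dopamine (50 nM final) for 90 min at 37 deg C. Luminescence was read 1 h after detection reagent, with 57 uM dopamine as the EC100 control.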
TRPV1 PAM – human TRPV1 potentiation; Q8NER1; TRPV1-expressing cells, Fluo-8 calcium influx, capsaicin EC20 potentiation; host cell line not named in the record; control for the full effect not named in the record; potentiation, % at 8.33 µM; actives 0.02% (n = 320,000); AID 540277; active means potentiation above 80%; inconclusive means 30% to 80%; inactive means below 30%; also: 0% is about no effect
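Cells expressing TRPV1 were dye-loaded with Fluo-8 and read kinetically: 10 s baseline, 3 min after compound (agonist portion), then 2 min after EC20 capsaicin (allosteric enhancer portion). Calcium-bound dye fluorescence at 480/520 nm.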
Numbers without * were called inactive; ? = inconclusive; . = no result given; & = joins results of further samples.

SMILES	TRPML1 agonist	CtBP-E1A inh	TRPML1 inh	Six1-Eya2 inh	D2 PAM	TRPV1 PAM
CCC(=O)c1ccc(OCC(=O)Nc2cc(S(=O)(=O)N3CCCCC3)ccc2OC)cc1	0.8	-17	28	-15	1	7
Cc1onc(-c2c(Cl)cccc2Cl)c1C(=O)ONC(=O)c1ccccc1	0.6	14	13	6	-3	-1
CCN1CCCC1CNC(=O)C(=O)NCc1ccccc1 (stereo not given)	0.2	8	7	4	-6	-31
Cc1ccc(-c2nc(-c3cccnc3)no2)cc1	1.0	6	9	7	5	?
Cc1ccc(-c2nnc(SCC(=O)Nc3ccc(N4CCOCC4)cc3)o2)cc1	-0.5	6	-2	10	-1	-5
COCCC(=O)N1CCCC(C(=O)c2ccc(Oc3ccccc3)cc2)C1 (stereo not given)	-1.0	2	3	-1	2	-8
COC(=O)c1cccc(OCCCN2CCC(C(O)(c3ccccc3)c3ccccc3)CC2)c1	7.1	1	.	-10	.	.
CCCOc1cc(C)c(S(=O)(=O)NCc2cccs2)cc1C	1.1	10	-11	12	-1	.
COc1ccc(CCn2c(=O)[nH]c3cc(C(=O)NCCN4CCOCC4)ccc3c2=O)cc1OC	-0.2	10	5	2	-7	?
CC(C)CCNC(=O)C1(C)CCN1Cc1ccc2ccccc2c1 (stereo not given)	-0.9	0	.	-9	-3	.
N#Cc1cnn2c(N)c(-c3ccc(Cl)cc3)cnc12	1.2	-15	10	-4	-2	-5
COc1ccc(N2C(=O)CC(N3CCN(c4ccccc4)CC3)C2=O)cc1 (stereo not given)	-0.6	4	10	-4	0	6
COc1ccccc1NC(=O)C1(c2ccccc2)CCCC1	1.2	5	-12	18	-7	-7
COc1ccc(CSc2nnc(Cc3sc(-c4ccccc4)nc3-c3ccccc3)o2)cc1	0.8	1	39	-4	-8	11
Cc1ccc(S(=O)(=O)N2CCN(C3CC(=O)N(c4ccc(F)cc4)C3=O)CC2)cc1C (stereo not given)	-1.4	.	7	5	-6	.
O=C(N/N=C/c1ccccc1OC(=O)N1CCOCC1)c1cccs1	0.8	.	28	0	0	-9
COc1ccc(CN(C)C(=O)c2ccc(NS(=O)(=O)c3ccc4[nH]c(=O)[nH]c4c3)cc2)c(OC)c1	0.6	5	24	2	-5	0
COc1ccc(NC(=O)CSc2nnc(C3CCCCC3)n2-c2ccccc2)cc1	1.8	-2	-10	-1	-9	-9
COc1ccc(C(CNC(=O)CSc2ccccc2C)N(C)C)cc1 (stereo not given)	0.9	-5	-10	6	-13	6
COc1cc(C(=O)COC(=O)c2ccncc2)cc(OC)c1OC	-0.7	-9	3	-3	-10	.
CCOC(=O)N1CCN(Cc2nc(N)nc(Nc3ccc(C)cc3C)n2)CC1	-0.9	4	-11	-18	15	12
O=C(Oc1cccc(Nc2ncnc3ccccc23)c1)c1cccnc1	-1.0	-8	8	-20	-5	-9
COc1ccc(S(=O)(=O)N(C)C)cc1NC(=O)COC(=O)c1n[nH]c2ccccc12	-0.9	-2	28	-24	-23	.
COc1ccccc1CCC(=O)NNC(=O)Cn1nc(C)cc1C	0.0	-1	5	5	-19	.
N#Cc1c(-c2ccc(Cl)cc2)cc(-c2cccs2)nc1SCC(=O)O	1.4	-2	-6	0	-3	-3
C=CCOc1ccc2ccccc2c1CNCCCN1CCOCC1	0.0	-11	3	8	-33	?
Cc1occc1-c1nnc(SCC(=O)NC(C)(C)C)n1C(C)c1ccccc1 (stereo not given)	-0.5	-1	-10	-1	-12	-18
COc1ccc(NC(=O)CSc2nccn2C)c([N+](=O)[O-])c1	-0.8	-14	8	-3	8	-5
CCn1c(SCC(=O)N2CCCC(C)C2)nnc1-c1ccc(S(=O)(=O)N2CCN(C)CC2)cc1 (stereo not given)	-0.9	-2	-7	0	-7	9
N#C/C(=C/c1ccc(N2CCCCC2)o1)c1cccc(F)c1	3.2	-10	-16	-11	-3	10
COC(=O)c1[nH]c(C)c(/C(O)=C2\C(=O)C(=O)N(CCCN3CCOCC3)C2c2ccccn2)c1C (stereo not given)	1.5	-1	1	-3	-14	19
Cc1cc(NC2CCCCC2)nc(N2CCOCC2)n1	-0.4	40	6	15	-20	5
Nc1cc(S(=O)(=O)O)cc2ccc(S(=O)(=O)O)cc12	0.0	4	12	0	-1	.
CC(=O)Nc1cccc(NC(=O)c2cccc(S(=O)(=O)N3CCN(Cc4ccccc4)CC3)c2)c1	-0.4	3	-3	-16	-6	-11
CC(=O)Nc1ccc(S(=O)(=O)N2CCCC(C(=O)N3CCN(c4ccccc4)CC3)C2)cc1 (stereo not given)	1.1	8	-15	-2	-12	1
Cc1ccccc1C(=O)Nc1ccc(C(=O)N/N=C/c2ccncc2)cc1	0.3	1	-10	-18	-4	-2

An excerpt of these results, with two lines to a compound.
Results follow in this order: TRPML1 agonist | CtBP-E1A inh | TRPML1 inh | Six1-Eya2 inh | D2 PAM | TRPV1 PAM
- C=CCOc1ccc2ccccc2c1CNCCCN1CCOCC1
  0.0 | -11 | 3 | 8 | -33 | ?
- Cc1cc(NC2CCCCC2)nc(N2CCOCC2)n1
  -0.4 | 40 | 6 | 15 | -20 | 5
- CC(=O)Nc1cccc(NC(=O)c2cccc(S(=O)(=O)N3CCN(Cc4ccccc4)CC3)c2)c1
  -0.4 | 3 | -3 | -16 | -6 | -11

(next part)
SMILES	TRPML1 agonist	CtBP-E1A inh	TRPML1 inh	Six1-Eya2 inh	D2 PAM	TRPV1 PAM
CC(=O)c1c(C)[nH]c(C(=O)COC(=O)Cc2ccccc2F)c1C	1.4	8	-10	-7	-18	.
O=C(Nc1ccccc1)C(Cc1ccccc1)c1ccccc1 (stereo not given)	2.1	10	-7	1	-7	.
CC(C)(C)NC(=O)CN1C(=O)/C(=C/c2ccccc2)SC1=S	0.0	0	-9	1	-6	-13
COc1ccc(NC(=O)N2c3ccccc3CC2C)cc1OC (stereo not given)	0.0	0	-3	-7	-17	25
O=C1CCCCC1C(Nc1ccc(Br)cc1)c1ccccc1 (stereo not given)	0.4	10	-11	-15	10	-18
Cc1nn(-c2ccccn2)c(N)c1N=O	1.5	-13	-19	-28	-3	5
O=C(Nc1ccc2[nH]ccc2c1)c1cccs1	-0.6	0	-8	0	-6	8
Cc1c(C(=O)N(Cc2ccc(Cl)cc2)C2CCS(=O)(=O)C2)oc2ccccc12 (stereo not given)	1.1	21	7	-9	-8	?
CCCS(=O)(=O)c1nc(S(=O)(=O)c2ccc(Cl)cc2)c(N2CCC(O)CC2)s1	0.0	-6	12	-1	-2	4
Cc1cccc(OCCn2c(CCCO)nc3ccccc32)c1	4.1	6	-4	-4	2	-17
Cn1c(SCC(=O)Nc2ccccc2Oc2ccccc2)nnc1C1CC1	0.3	-1	-7	0	-4	2
COc1ccc(NC(=S)Nc2cccc(Cl)c2)cc1OC	-0.8	1	-2	-9	-2	3

Structures from the list above that have a furan ring, fused or not:
SMILES	TRPML1 agonist	CtBP-E1A inh	TRPML1 inh	Six1-Eya2 inh	D2 PAM	TRPV1 PAM
Cc1occc1-c1nnc(SCC(=O)NC(C)(C)C)n1C(C)c1ccccc1 (stereo not given)	-0.5	-1	-10	-1	-12	-18
N#C/C(=C/c1ccc(N2CCCCC2)o1)c1cccc(F)c1	3.2	-10	-16	-11	-3	10
Cc1c(C(=O)N(Cc2ccc(Cl)cc2)C2CCS(=O)(=O)C2)oc2ccccc12 (stereo not given)	1.1	21	7	-9	-8	?

(continued)
SMILES	TRPML1 agonist	CtBP-E1A inh	TRPML1 inh	Six1-Eya2 inh	D2 PAM	TRPV1 PAM
CCc1nc2ccc(C(=O)NCCN3CCNC3=O)cn2c1N(C)Cc1ccc(OC)cc1	-0.5	2	.	0	-4	.
CCOc1ccc(C(=O)CCC(=O)NNC(=O)c2ccccc2O)cc1	2.4	-22	0	-7	-5	4
COC(=O)c1cc(OC)c(OC)cc1NC(=O)CCC1CCCC1	1.9	-3	3	-3	0	-20
CCOC(=O)N1CCC(NC(=O)c2csc3c2CCCC3)CC1	0.0	4	11	12	-4	?
CCN(CC)C(=O)C1CCCc2c1[nH]c1ccc(Cl)cc21 (stereo not given)	-0.3	-3	-5	-10	0	2
S=c1[nH]nc(-c2ccc3c(c2)OCO3)n1-c1ccccc1	0.5	24	-8	-13	7	0
O=c1[nH]c(-c2ccccn2)nc2ccccc12	-0.2	-89*	8	-91*	-5	6
CCc1ccc(CCC(=O)Nc2ccc(C(=O)O)cc2)o1	-0.6	1	-1	-1	-14	8
COc1ccccc1OCC(=O)Nc1ccc(S(=O)(=O)N2CCOCC2)cc1	0.9	2	-10	-5	-2	-12
O=C(C1CCCO1)N1CCN(c2ncccn2)CC1 (stereo not given)	0.6	-21	11	-11	-1	-7
CC1(C(=O)Nc2ccc(Cl)cc2)Cc2c(-c3cccc(C(N)=O)c3)ccnc2O1 (stereo not given)	0.1	-13	.	-16	-8	.
COc1ccc(NC(=O)c2cccc(Oc3ccc([N+](=O)[O-])cc3Cl)c2)cc1	-0.6	-14	12	-18	11	-4
Cc1ccc(-n2c(=O)cc(N3CC(C)OC(C)C3)[nH]c2=O)cc1 (stereo not given)	-0.2	1	-5	5	1	12
CCOc1ccc(NC(=O)CCCOc2cc(=O)n(C)c3ccccc23)cc1	2.0&0.1	10	33&4	6	-5	6
COCCn1c(SC(C)C(=O)Nc2ccc3c(c2)OCCO3)nc2ccccc2c1=O (stereo not given)	0.0	-2	-1	-10	-23	2
CC(C)=CC(=O)NCc1c(Cl)cccc1-n1cccc1	0.8	4	13	1	-1	12
Cc1cc(C)c(C#N)c(SCC(=O)Nc2ccccc2C(N)=O)n1	-0.4	-3	-9	5	-4	.
O=C(Nc1nc2ccsc2c(=O)s1)c1ccc(Cl)cc1	3.6	4	-6	-1	-8	-13
c1ccc2c(-c3ccc(OCCN4CCCCC4)cc3)c(-c3ccsc3)sc2c1	-0.7	-12	8	-20	-22	.
COc1ccccc1C(=O)OCC(=O)NC1CCCC1	0.1	3	-6	-2	-4	-11
O=C1NC(=NCc2ccccc2)S/C1=C\c1ccccc1	2.3	0	6	3	-25	-11
CC1(C(=O)Nc2cccc3c2CCCC3)CCN1C(=O)c1cccc(F)c1 (stereo not given)	1.2	1	.	-1	-4	.
CN(C(=S)NC(=O)Cc1ccccc1)c1ccccc1	-0.6	-10	13	2	-7	-1
Cc1ccccc1OCC(=O)N/N=C/c1ccncc1	0.1	-9	5	-14	-19	-2
O=S(=O)(Nc1ncccn1)c1ccc(NC(=S)NCc2ccco2)cc1	-0.2	0	5	-4	-6	-7
COc1ccccc1NC(=O)CSc1nc2ncccc2[nH]1	-0.5	0	-7	-3	-12	2
O=C(NC1CCCCC1)C(c1cccnc1)N(C(=O)CCl)c1ccc(F)cc1 (stereo not given)	-0.2	3	-3	3	-17	3
O=C(CC[C@H]1O[C@@H](n2ccc(=O)[nH]c2=O)[C@H](O)[C@@H]1O)NCCc1c[nH]c2ccccc12	0.8	4	-6	3	1	.
Cc1cccc(NC(=S)NC2CC3CCC(C2)N3Cc2ccco2)c1C (stereo not given)	0.7	5	9	2	-22	22
O=[N+]([O-])c1cccnc1Sc1ccc(F)cc1	1.6	-11	17	-13	1	.
CCOC(=O)[C@H]1[C@H]2COc3ccccc3[C@@H]2N2C(=O)c3ccccc3NC(=O)[C@@]12C	-0.4	-7	-15	-6	-16	11
